FEN1 inhibitor: human FEN1 inhibition. P39748. Recombinant FEN1 flap cleavage, fluorescence, 15 min. Potency, µM (highest dose often 114 µM), for the others: at the highest dose activity change, negative = inhibition, actives largely listed as inhibitors. 390,000 compounds, 0.35% hits; note: nearly all actives have a fitted effect of over 65% in size
Target sequence (P39748 whole entry, looked up): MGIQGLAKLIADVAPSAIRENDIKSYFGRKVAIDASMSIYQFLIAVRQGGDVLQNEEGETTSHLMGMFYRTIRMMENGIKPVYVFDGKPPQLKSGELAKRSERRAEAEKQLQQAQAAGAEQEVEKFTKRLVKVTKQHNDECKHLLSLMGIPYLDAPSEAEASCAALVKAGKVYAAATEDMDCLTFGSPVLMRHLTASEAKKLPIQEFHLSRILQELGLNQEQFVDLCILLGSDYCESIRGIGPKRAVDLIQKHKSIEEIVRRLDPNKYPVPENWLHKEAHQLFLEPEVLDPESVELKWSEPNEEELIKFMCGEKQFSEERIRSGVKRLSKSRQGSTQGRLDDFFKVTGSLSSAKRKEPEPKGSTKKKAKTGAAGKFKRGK
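Concentration–response screening of FEN1 (10 nM): 15 min compound preincubation at room temperature, reaction started with 50 nM substrate and read at 0 and 15 min. Corrected, normalized data were fitted by a four-parameter Hill equation.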
GCN5L2 inh: GCN5L2 (KAT2A) acetyltransferase inhibition | Q92830 | Potency, µM (series often up to 58.9 µM), inactives show at the highest dose activity change, negative = inhibition, hits mostly inhibitors | AID 504327 | 390,000 compounds, 0.21% hits | GCN5L2 HAT assay, ThioGlo1 CoA-SH fluorescence
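ThioGlo1-coupled HAT assay: 20nM GCN5L2, 70uM acetyl-CoA, 75uM H3(1-25) peptide, pH 7.5. Fluorescence read at 340/540nm at start and after 20 min at room temperature.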
Active calls of the source: *; ? = inconclusive; · = not tested or not shown; & = joins results of further samples; [ ] = remark or other dose. Calls come from the whole dose curve; as a rule, active = well fitted curve in the direction sought with a large enough effect; inconclusive = small, poorly fitted or top-dose-only effect, or another doubt; inactive = no such curve, though single readings can be large; an effect the other way counts as inactive or inconclusive. % is set by controls: 0 for no effect and ±100 for the full control effect; potency is the fitted concentration of half-maximal effect. This is a subset; most or all hits stand in other tables.

Results follow in this order: FEN1 inhibitor, GCN5L2 inh
- CSc1ccccc1C(=O)C1CCCN(C(=O)c2cncs2)C1 (stereo not drawn)
  -23%, 1%
- O=C1/C(=C/c2ccco2)Cc2ccccc21
  -16%, -5%
- CCOC(=O)C(=CNc1ccc(OC)cc1[N+](=O)[O-])C(=O)OCC
  0%, -3%
- CC1(C)CC2(CC(c3ccccc3)Oc3cc(O)ccc32)NC(=S)N1 (stereo not drawn)
  -1%, 9%
- CCOc1ccccc1NC(C)C(=O)Nc1cc(C(F)(F)F)ccc1N1CCOCC1 (stereo not drawn)
  -18%, -1%
- C/C(=N\NC(=O)C1(C)CC1(Br)Br)c1ccc([N+](=O)[O-])cc1 (stereo not drawn)
  0%, -5%
- C=CCn1c(=NC(=O)c2cc(Cl)sc2Cl)sc2cc(S(N)(=O)=O)ccc21
  3%, -6%
- Cc1c(NC(=O)C(C)OC(=O)C(NC(=O)c2ccco2)C(C)C)c(=O)n(-c2ccccc2)n1C (stereo not drawn)
  -11%, -17%
- Cc1ccc(S(=O)(=O)NC2CCOC(C)(C)C2)cc1 (stereo not drawn)
  -5%, -22%
- NC(=O)C1CCN(C(=O)c2cc(S(=O)(=O)N3CCOCC3)ccc2Cl)CC1
  5%, 2%
- COc1n[nH]c(C(=O)NCc2ccccc2)c1[N+](=O)[O-]
  0%, 6%
- Cc1ccc2c(c1)[C@@H]1CN(C)CC[C@@H]1N2S(=O)(=O)c1ccc(F)cc1
  -5%, ?
- Cc1ccc(C(=O)Nc2cc3[nH]c(=O)oc3cc2C)cc1
  10%, 1%
- O=C(NCC(c1ccco1)N1CCc2ccccc2C1)c1ccc(Br)cc1 (stereo not drawn)
  7%, -9%
- COc1ccc(NC(=O)CSc2nc3c([nH]c4ccccc43)c(=O)n2C)c(OC)c1
  2%, -13%
- COCCn1c(SCC(=O)Nc2nnc(C)s2)nnc1-c1cc2ccccc2cc1O
  -4%, -5%
- CC(C)CCN1NC2(CCCC(C)C2)NC1=S (stereo not drawn)
  8%, -1%
- COc1cccc(OCC(=O)N(Cc2nc(-c3ccc(Cl)cc3)no2)C(C)C)c1
  1%, -6%
- O=C(c1ccncc1)N1CCC2(CC1)CCN(c1ccc(-c3ccccc3)cc1)CC2
  ·, 5%
- Cc1ccc(NC(=O)Cn2cnc3c(nnn3Cc3ccc(F)cc3)c2=O)cc1
  -12%, -3%
- O=C(COc1ccc2c3c(c(=O)oc2c1)CCC3)N1CCCC1
  -4%, 1%
- CCOc1ccc(NC(=O)CCC(=O)O)cc1
  5%, 1%
- COC(=O)c1ccc(=O)n(Cc2ccco2)c1
  1%, 0%
- COc1ccc(-n2nc3c(N4CCC(C(=O)N5CCC(C)CC5)CC4)nnc(C)c3c2C)cc1
  0%&1%, -10%&-3%
- O=C(NC(=S)N1CCN(Cc2ccccc2)CC1)c1ccco1
  20%, -4%
- N=c1oc2ccccc2cc1C(=O)N/N=C/c1ccccc1
  1%, 2%
- O=C(CCc1ccccc1)NCCC1=CCCCC1
  -4%, -1%
- COCCCn1c(=O)c2sccc2n2c(CCCC(=O)NCc3ccc(OC)cc3)nnc12
  -4%, -14%
- COc1ccc(-c2nc3ccccc3s2)cc1O
  -5%, -9%
- COc1ccc(-c2noc(C3CCCN(S(=O)(=O)c4cccc(Cl)c4C)C3)n2)cc1OC (stereo not drawn)
  -19%, -8%
- Cc1noc(C)c1S(=O)(=O)NC1CCCc2ccccc21 (stereo not drawn)
  2%, 0%
- COc1cc(-c2cc(=O)c3c(O)cc(O)cc3o2)ccc1O
  ?, 0%&0%
- CC(=O)Nc1ccc(NC(=O)C(C)OC(=O)C2CCN(S(=O)(=O)c3ccccc3C(F)(F)F)CC2)cc1 (stereo not drawn)
  3%, -3%
- COc1ccc(Br)cc1S(=O)(=O)n1ccnc1
  19%, -9%
- COC(=O)N/N=C/c1ccccc1
  -8%, -7%
- CC(C)CCNC(=O)CN(CCCN1CCOCC1)C(=O)Cn1nnc(-c2ccc(F)cc2)n1
  -13%, -4%
- CCOC(=O)C1CCN(C(=O)COC(=O)c2ccc3c(c2)C(=O)N(c2ccc(OCC)cc2)C3=O)CC1
  4%, -20%
- CC(=O)OCC(=O)[C@@]1(O)CC[C@H]2[C@@H]3CCC4=CC(=O)C=C[C@]4(C)[C@H]3C(=O)C[C@@]21C
  -5%, 3%
- Cc1ccc(OCC(=O)NC2=NCCS2)cc1
  0%, 22%
- CCCn1c(N)c(C(=O)CSc2nc3ccccc3c(=O)n2-c2ccc(OC)cc2)c(=O)[nH]c1=O
  2%, -16%
- O=C(COC(=O)c1cnccn1)NC(=O)c1ccccc1
  -3%, -1%
- Cc1ccc(N/N=C2\COC(C)(C)CC2=O)cc1
  0%, -8%
- CN1/C(=C\C(=O)Nc2ccc(Cl)cc2)C(C)(C)c2ccccc21
  -10%, -16%
- CCCc1nc2ccccc2c(=O)n1NC(=O)c1c(O)c2ccccc2[nH]c1=O
  -17%, 2%
- CCn1c(SCC(=O)c2ccc(Cl)cc2)nnc1-c1cccs1
  -5%, -5%
- O=C(NC12CC3CC(CC(C3)C1)C2)c1ccc(N2CCNCC2)c([N+](=O)[O-])c1
  31%, -3%
- COc1cc2[nH]c(=S)n(Cc3ccc(C)o3)c(=O)c2cc1OC
  7%, 1%
- Cc1cc(C)nc(NC(=NCCc2c[nH]c3ccccc23)NC(=O)Nc2ccccc2)n1
  -13%, -8%
- Cc1cccc2c(=O)c(-c3ccc4c(c3)OCO4)c(NC(=O)c3ccco3)oc12
  -15%, -13%
- Cc1ccc2cc3cc(C(=O)N4CCN(C(=O)c5ccco5)CC4)sc3nc2c1
  -2%, -20%
- COc1ccc(CNS(=O)(=O)c2ccc(-c3ccc(=O)[nH]n3)o2)cc1
  0%, -13%
- Cn1c(Cn2cnc(Cl)c2Cl)nc2ccccc21
  -10%, 0%
- Cc1c(C#N)c(NC(=O)c2cccc(Cl)c2)n(Cc2ccccc2)c1C
  7%, ?
- Cc1noc(C)c1C(=O)Nc1sc2c(c1C(N)=O)CCC2
  3%, -2%
- COc1ccc(NC(=O)CCCC(=O)NCCc2ccc(OC)c(OC)c2)cc1
  17%, -9%
- O=C(Nc1ccc(C(=O)N2CCOCC2)cc1)Nc1ccc(Cl)cc1Cl
  2%, -2%
- CC(=O)Oc1ccc(C(=O)Nc2ccc(S(=O)(=O)N3CCOCC3)cc2)cc1
  -5%, -8%
- CCOC(=O)/C(C#N)=C/c1cc(C)n(-c2ccc(Br)cc2)c1C
  ·, 0%[0.501 µM]
- COc1ccc(S(=O)(=O)N2CCN(C(=O)C3CCC3)CC2)cc1
  4%, 3%
- O=C(NCCCn1ccnc1)c1cc(C(=O)C2CC2)c[nH]1
  -2%, 1%

5 entries already listed, arranged by the value under GCN5L2 inh, highest first:
structure | GCN5L2 inh
COc1ccc(S(=O)(=O)N2CCN(C(=O)C3CCC3)CC2)cc1 | 3%
Cc1noc(C)c1S(=O)(=O)NC1CCCc2ccccc21 (stereo not drawn) | 0%
O=C(Nc1ccc(C(=O)N2CCOCC2)cc1)Nc1ccc(Cl)cc1Cl | -2%
COc1ccc(Br)cc1S(=O)(=O)n1ccnc1 | -9%
CN1/C(=C\C(=O)Nc2ccc(Cl)cc2)C(C)(C)c2ccccc21 | -16%

Further compounds follow:
Results follow in this order: FEN1 inhibitor, GCN5L2 inh
- Cc1cccc(NS(=O)(=O)c2ccc(C)c(C(=O)NCC(c3ccco3)N3CCCCC3)c2)c1 (stereo not drawn)
  0%, -4%
- O=C(Cc1cccc(C(F)(F)F)c1)Nc1cccc(S(=O)(=O)N2CCCC2)c1
  -1%, ?
- CN(C)c1ccc(NC(=O)CN2C3CCCC2CC(NC(=O)c2ccccc2)C3)cc1 (stereo not drawn)
  -2%, 2%
- CCSc1nnc(NC(=O)NCC(F)(F)F)s1
  0%, -3%
- CN(C)NC(=S)NC(=O)C12CC3CC(CC(C3)C1)C2
  -2%, -11%
- O=C(O)c1ccc(Cl)c(S(=O)(=O)Nc2ccccc2Cc2ccccc2)c1
  -2%, -1%
- COc1cc(NC(=O)CNc2cccc(S(=O)(=O)N3CCCC3)c2)cc(OC)c1
  -2%, ?
- COc1cc([N+](=O)[O-])ccc1NC(=O)/C=C\C(=O)O
  -9%, -2%
- O=S1(=O)CCN(Cc2cccc(C(F)(F)F)c2)CC1
  8%, 0%
- c1cnc2ccc(C(c3nnnn3C3CCCC3)N3CCSCC3)cc2c1 (stereo not drawn)
  0%, -1%
- O=C(CSc1ncnc2c1cnn2-c1ccccc1Cl)N1CCN(C(=O)c2ccco2)CC1
  10%, -4%
- COc1ccc(Cn2nnnc2CN(CCCN2CCOCC2)Cc2cc3cc(OC)ccc3[nH]c2=O)cc1
  -11%, 0%
- O=C(Cn1cnc2cc([N+](=O)[O-])ccc2c1=O)Nc1cccc(S(=O)(=O)N2CCOCC2)c1
  3%, -6%
- COc1ccc(OC)c(S(=O)(=O)N2CCC(C(=O)NCc3ccccn3)CC2)c1
  -1%, -7%
- Cc1cc(C)cc(NC(=O)CCCn2nc(C)c3c(C)n(-c4ccccc4)nc3c2=O)c1
  -7%&-9%, -1%&-8%
- N#CC(c1ccccc1)c1cnccn1 (stereo not drawn)
  4%, -4%
- CCOc1ccc(S(=O)(=O)N(CC(=O)NCc2cccnc2)c2ccc(F)cc2)cc1
  -6%, 3%
- CN(C)c1ccc(NC(=O)CN2CCc3ccccc3C2)cc1
  -3%, -2%
- COc1ccc(OCC(=O)Nc2c3c(nn2-c2ccc(OC)cc2)CS(=O)(=O)C3)cc1
  -2%, -27%
- COc1ccc(C(=O)N/N=C2\CCc3ccccc32)cc1OC
  -4%, -5%
- Cc1cc(F)ccc1NC(=O)Nc1ccc2c(c1)OCO2
  -3%, -1%
- Cc1ccc(NC(=O)c2cc(-c3ccc4c(c3)OCO4)on2)cc1
  -2%&19%, -2%&-6%
- Clc1cc(NCc2ccccc2)ncn1
  -1%, 3%
- COc1cc(C(=O)Nc2ccc3oc(-c4cccnc4)nc3c2)cc(OC)c1OC
  -9%&-11%, -14%
- COc1cc(OC)cc(C(=O)N[C@H](C(=O)Nc2ccc3c(c2)OCO3)C(C)C)c1
  -11%, -6%
- COCCN=C1NN=C(c2ccc(NC(C)=O)cc2)CS1
  -12%, -12%
- O=C(CCNC(=O)c1ccc([N+](=O)[O-])cc1)Nc1ccccc1N1CCCC1
  11%, -2%
- CN(C(=O)COC(=O)c1ccc(Br)c([N+](=O)[O-])c1)c1c(N)n(Cc2ccccc2)c(=O)[nH]c1=O
  -5%, -9%
- FC(F)(F)c1ccccc1-c1cc(NCc2cccs2)ncn1
  ·, -11%
- CC1CN(C(=O)c2cccc(S(=O)(=O)Nc3ccccc3Cl)c2)CC(C)O1 (stereo not drawn)
  2%, -4%

An excerpt from above in order of SMILES length, largest number first.
Results follow in this order: FEN1 inhibitor, GCN5L2 inh
- COc1ccc(Cn2nnnc2CN(CCCN2CCOCC2)Cc2cc3cc(OC)ccc3[nH]c2=O)cc1
  -11%, 0%
- O=C(CCNC(=O)c1ccc([N+](=O)[O-])cc1)Nc1ccccc1N1CCCC1
  11%, -2%
- c1cnc2ccc(C(c3nnnn3C3CCCC3)N3CCSCC3)cc2c1 (stereo not drawn)
  0%, -1%

The main list resumes with the 2 entries that preceded the break.
Results follow in this order: FEN1 inhibitor, GCN5L2 inh
- FC(F)(F)c1ccccc1-c1cc(NCc2cccs2)ncn1
  ·, -11%
- CC1CN(C(=O)c2cccc(S(=O)(=O)Nc3ccccc3Cl)c2)CC(C)O1 (stereo not drawn)
  2%, -4%
- Cc1ccc(C(=O)Nc2ncc3c(n2)CC(c2ccco2)CC3=O)cc1 (stereo not drawn)
  -1%, 1%
- COc1ccc2c(=O)c(-c3ccccc3)coc2c1
  -6%, -19%[0.501 µM]
- COc1ccc(-c2noc(C3CCCN(C(=O)c4c(F)cccc4F)C3)n2)cc1OC (stereo not drawn)
  17%, -19%
- Cc1occc1-c1nnc(SCc2nnc(-c3ccc(Cl)cc3)o2)n1C
  -3%, -2%
- CN1CCN(C(=O)C2CC(=O)N(c3ccc(F)c(Cl)c3)C2)CC1 (stereo not drawn)
  1%, 4%
- CCC(C)NC(=O)c1ccc(CS(=O)(=O)c2ccc(OC)cc2)o1 (stereo not drawn)
  11%, -6%
- COC(=O)/C(=C1/Oc2ccc(C(C)(C)C)cc2S1)C(F)(F)F
  -8%, -5%
- O=C(CSc1nc2c(c(=O)n1-c1ccc(Cl)cc1)SCC2)N1CCOCC1
  13%, 1%
- CCn1c(CSCc2ccc(C)cc2)nnc1SCC(=O)N1CCN(c2ccccc2)CC1
  -11%, -2%
- CCOc1ccc(NC(=O)c2cc([N+](=O)[O-])ccc2N2CCOCC2)cc1
  2%, -4%
- CCOc1c(Cl)cc(C2NC(=O)NC(C)=C2C(=O)NCc2ccccc2)cc1OC (stereo not drawn)
  -3%, -4%
- CN(C)C(=O)c1ccc(-c2ccc3ncnc(NC4CC4)c3c2)cc1
  ·, -11%
- Cc1cccc(NC(=O)CSc2nnc(-c3ccco3)n2CC2CCCO2)n1 (stereo not drawn)
  -15%, 4%
- COc1ccccc1CNC(=O)c1ccc(OC(C)C)cc1
  2%, 1%
- COc1ccc(CNC(=O)CSc2nnc(C)c(=O)[nH]2)cc1
  3%, -4%
- O=C1CC(=O)C(n2cncn2)C(c2c(F)cccc2Cl)C1 (stereo not drawn)
  -6%, -3%
- CCOc1cc(C2C3=C(CC(C)(C)CC3=O)N(CCOC)C3=C2C(=O)CC(C)(C)C3)ccc1OC
  17%, -9%
